NOMO-1 viab: NOMO-1 AML cell viability reduction, primary screen, STK33 inhibitor project, CellTiter-Glo luminescence; AID 2330, 2010; 37,000 tested, 7.5% active; NOMO-1 AML viability, 72 h; inhibition, % (no concentration beside the values);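 active = most replicates above 80%; inconclusive = exactly half above 80%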;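 note: wells of about 30 µL received 25 nL stock; 0% = median of vehicle wells and 100% = reference inhibitor level; the first replicate is given; inactives centre near 10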
Starred values were filed as active, the others as inactive; ? = inconclusive.

SMILES | NOMO-1 viab
CC1(C)OC2C(CO)OC(n3cnc4c(=O)[nH]cnc43)C2O1 (centres undefined) | 20
Cc1noc(C)c1NC(=O)N(C)C[C@@H]1Oc2c(NC(=O)CCCCCC(=O)Nc3ccccc3N)cccc2C(=O)N([C@@H](C)CO)C[C@@H]1C | 11
Cc1ccc(C)c(NC(=O)C(C)N(c2ccc(Cl)cc2)S(C)(=O)=O)c1 (centres undefined) | -1
Cc1ccc2ccc(C(Nc3ccccn3)c3ccc(C(C)C)cc3)c(O)c2n1 (centres undefined) | 108*
CC(C)NC(=O)N(C)C[C@@H]1Oc2c(NC(=O)c3nc4ccccc4s3)cccc2C(=O)N([C@@H](C)CO)C[C@@H]1C | 20
C[C@@H]1CN([C@H](C)CO)C(=O)Cc2cc(NS(C)(=O)=O)ccc2O[C@H]1CN(C)C(=O)Nc1ccc(F)cc1 | 0
CCc1ccc(N2NC(=O)C(=C(C)C)C2=O)cc1 | 33
CC(C)NC(=O)Nc1ccc2c(c1)C(=O)N([C@@H](C)CO)C[C@H](C)[C@H](CN(C)S(=O)(=O)c1ccc(Cl)cc1)O2 | 37
COc1ccc(OC(=O)CCN2C(=O)C3C4C=CC(C4)C3C2=O)cc1 (centres undefined) | 35
CC(=O)OC(C)(C)/C=C/C(=O)[C@](C)(O)[C@H]1C(O)C[C@@]2(C)[C@@H]3CC=C4[C@@H](C=C(O[C@@H]5O[C@H](CO)[C@@H](O)[C@H](O)[C@H]5O)C(=O)C4(C)C)[C@]3(C)C(=O)C[C@]12C (some centres undefined) | 117*
C[C@H](CO)N1C[C@H](C)[C@H](CN(C)S(=O)(=O)c2ccccc2)Oc2ccc(NS(C)(=O)=O)cc2CC1=O | 2
CC(=O)Nc1ccc2c(c1)nc1n2CCN(Cc2ccco2)C1 | 24
C[C@H]1CN([C@@H](C)CO)C(=O)c2cc(NC(=O)Nc3ccccc3)ccc2O[C@H]1CN(C)S(=O)(=O)c1cn(C)cn1 | 8
Cc1noc(C)c1S(=O)(=O)Nc1ccc2c(c1)C(=O)N([C@H](C)CO)C[C@H](C)[C@@H](CN(C)C(=O)c1ccccc1)OCCCC[C@@H](C)O2 | 24
COc1ccc(S(=O)(=O)N(C)C[C@H]2Oc3ccc(NS(=O)(=O)c4ccc(Cl)cc4)cc3C(=O)N([C@H](C)CO)C[C@@H]2C)cc1 | 3
C[C@H]1CN([C@@H](C)CO)C(=O)c2cc(NS(C)(=O)=O)ccc2O[C@H]1CN(C)S(C)(=O)=O | 5
C[C@@H]1CN([C@H](C)CO)C(=O)c2cc(NC(=O)C3CC3)ccc2O[C@H]1CN(C)Cc1ccc(C(=O)O)cc1 | 5
Cc1ccc(S(=O)(=O)N(C)C[C@H]2Oc3ccc(NC(=O)Cc4cn(C)c5ccccc45)cc3CC(=O)N([C@@H](C)CO)C[C@H]2C)cc1 | 16
Cc1ccc(NC(=O)COc2ccc(C(C)(C)C)cc2Br)c([N+](=O)[O-])c1 | 19
COc1ccc(NC(=O)N(C)C[C@@H]2Oc3c(cccc3N(C)C)C(=O)N([C@H](C)CO)C[C@@H]2C)cc1 | -6
COc1ccc(NC(=O)N(C)C[C@@H]2Oc3ccc(NC(=O)CCCCCC(=O)Nc4ccccc4N)cc3C(=O)N([C@H](C)CO)C[C@@H]2C)cc1 | -23
CC(=O)NC(C(=O)O[C@H]1CCC(C)(C)[C@@H]2CC=C3C(=O)OCC3(O)[C@@]12C)C(C)C (some centres undefined) | 61
C[C@@H]1CN([C@@H](C)CO)C(=O)c2cccc(NC(=O)Nc3ccc(F)cc3)c2O[C@@H]1CN(C)C(=O)Nc1ccccc1 | 36
COc1ccc(NC(=O)N(C)C[C@H]2Oc3ccc(NC(=O)Nc4ccccc4)cc3C(=O)N([C@H](C)CO)C[C@@H]2C)cc1 | 6
C[C@@H]1CCCCO[C@@H](CN(C)S(=O)(=O)c2ccc(F)cc2)[C@@H](C)CN([C@H](C)CO)C(=O)c2cc(NC(=O)c3ccncc3)ccc2O1 | 16
CC(C)NC(=O)N(C)C[C@@H]1Oc2ccc(NC(=O)CCCN(C)C)cc2C(=O)N([C@@H](C)CO)C[C@@H]1C | 20
CNC[C@@H]1Oc2c(NC(=O)Nc3ccc(F)cc3)cccc2C(=O)N([C@H](C)CO)C[C@H]1C | 22
Cc1ccc(S(=O)(=O)Nc2ccc3c(c2)C(=O)N([C@H](C)CO)C[C@H](C)[C@@H](CN(C)C(=O)Nc2ccc(C(F)(F)F)cc2)OCCCC[C@@H](C)O3)cc1 | 69
CC(C)NC(=O)N(C)C[C@H]1Oc2ccc(NC(=O)Cc3cn(C)c4ccccc34)cc2CC(=O)N([C@@H](C)CO)C[C@H]1C | 3
C[C@@H]1CN([C@@H](C)CO)C(=O)c2cc(NS(=O)(=O)c3cccs3)ccc2O[C@H]1CN(C)C(=O)Nc1cccc2ccccc12 | 16
COC(=O)C1=C(C)NC2=C(C(=O)CC(c3ccccc3)C2)C1c1ccccc1OC(C)C (centres undefined) | 67
C[C@H](CO)N1C[C@H](C)[C@H](CN(C)C(=O)Nc2ccc(F)cc2)Oc2c(NC(=O)Nc3ccc(C(F)(F)F)cc3)cccc2C1=O | 103*
CSc1nc(SCC(=O)N(c2ccccc2)c2ccccc2)c2c3c(sc2n1)CCC3 | -8
C[C@@H]1CN([C@H](C)CO)C(=O)c2cc(NC(=O)Cc3cn(C)c4ccccc34)ccc2O[C@H]1CN(C)Cc1ccc(-c2ccccc2)cc1 | 96*
C=C1C(=O)O[C@H]2C1CCC(C)=C1C(=O)C=C(C)[C@@]12O (some centres undefined) | 106*
Cc1ccc(C(=O)OC[C@H]2O[C@H](c3nnc4ncccn34)C[C@@H]2OC(=O)c2ccc(C)cc2)cc1 | 10
CC(Oc1cccc(NC(=O)c2ccc([N+](=O)[O-])cc2)c1)C(=O)c1cccc(Cl)c1 (centres undefined) | 19
NN/C(=N/S(=O)(=O)c1ccccc1)N1CCCC1 | 1
O=S(CCSc1nc2ccccc2s1)Cc1ccc(Cl)cc1 (centres undefined) | 11
C[C@H]1CN([C@@H](C)CO)C(=O)Cc2cc(NC(=O)Nc3ccc(F)cc3)ccc2O[C@H]1CN(C)C(=O)Nc1ccc2c(c1)OCO2 | 28

6 entries picked at random from the list so far:
SMILES | NOMO-1 viab
C[C@H]1CN([C@@H](C)CO)C(=O)c2cc(NS(C)(=O)=O)ccc2O[C@H]1CN(C)S(C)(=O)=O | 5
Cc1ccc(S(=O)(=O)N(C)C[C@H]2Oc3ccc(NC(=O)Cc4cn(C)c5ccccc45)cc3CC(=O)N([C@@H](C)CO)C[C@H]2C)cc1 | 16
COc1ccc(NC(=O)N(C)C[C@@H]2Oc3ccc(NC(=O)CCCCCC(=O)Nc4ccccc4N)cc3C(=O)N([C@H](C)CO)C[C@@H]2C)cc1 | -23
COc1ccc(S(=O)(=O)N(C)C[C@H]2Oc3ccc(NS(=O)(=O)c4ccc(Cl)cc4)cc3C(=O)N([C@H](C)CO)C[C@@H]2C)cc1 | 3
Cc1ccc(C(=O)OC[C@H]2O[C@H](c3nnc4ncccn34)C[C@@H]2OC(=O)c2ccc(C)cc2)cc1 | 10
C[C@H](CO)N1C[C@H](C)[C@H](CN(C)C(=O)Nc2ccc(F)cc2)Oc2c(NC(=O)Nc3ccc(C(F)(F)F)cc3)cccc2C1=O | 103*

Next results:
SMILES | NOMO-1 viab
CC(=O)c1cccc(NC(=S)NCc2ccccn2)c1 | 5
COc1ccc(NC(=O)Nc2cccc3c2O[C@H](CN(C)Cc2ccncc2)[C@H](C)CN([C@H](C)CO)C3=O)cc1 | 6
COc1ccc(S(=O)(=O)N(C)C[C@@H]2Oc3ccc(NC(=O)C4CC4)cc3C(=O)N([C@@H](C)CO)C[C@H]2C)cc1 | 0
C=C(C(=O)O)C1CCC2(C)CCC(=O)C(C)=C2C1 (centres undefined) | 14
Cc1cccc(C=Nc2c(C)n(C)n(-c3ccccc3)c2=O)c1 | -1
COC(=O)c1ccccc1NC(=O)CN1CCN(C)CC1 | -12
CC1(C)CC[C@]2(C(=O)O)CC[C@]3(C)C(=CCC4[C@@]5(C)CC[C@H](OC6O[C@H](CO)[C@@H](O)[C@H](O[C@@H]7O[C@H](CO)[C@@H](O)[C@H](O)[C@H]7O)[C@H]6O)C(C)(C)C5CC[C@]43C)[C@@H]2C1 (some centres undefined) | 119*
C=CCN1C(=O)/C(=C\c2ccccc2Cl)N=C1c1ccccc1 | 44
CCc1cccc(CC)c1NC(=O)Cn1cnc2sc(C)c(C)c2c1=O | 1
C[C@@H]1CN([C@@H](C)CO)C(=O)c2cc(NC(=O)Nc3ccc4c(c3)OCO4)ccc2O[C@H]1CN(C)Cc1ccc(C(=O)O)cc1 | 20
C[C@@H]1CN([C@H](C)CO)C(=O)c2cccc(NC(=O)c3ccc(-c4nccs4)cc3)c2O[C@@H]1CN(C)C(=O)Nc1ccc(C(F)(F)F)cc1 | 30
C[C@H]1CN([C@@H](C)CO)C(=O)Cc2cc(NC(=O)CCN3CCOCC3)ccc2O[C@H]1CN(C)Cc1ccc(-c2ccccc2)cc1 | 16
C[C@@H]1CN([C@@H](C)CO)C(=O)c2cc(NC(=O)CCC(F)(F)F)ccc2O[C@H]1CN(C)Cc1ccc(C(F)(F)F)cc1 | 24
C[C@H]1CN([C@@H](C)CO)C(=O)c2cccc(NS(C)(=O)=O)c2O[C@@H]1CN(C)C | -2
COc1ccc(C(=O)NCCCN2CCCC2=O)cc1[N+](=O)[O-] | -9
C[C@H](CO)N1C[C@H](C)[C@H](CN(C)C(=O)Nc2ccc(F)cc2)Oc2ccc(NC(=O)C3CC3)cc2CC1=O | 18
COc1ccc(OC)c(NC(=O)COc2ccc3c(=O)c(Oc4ccccc4Br)coc3c2)c1 | 37
CC(C)OC(=O)CSc1nnc(-c2cnccn2)n1-c1ccccc1 | 24
Cc1ccc(S(=O)(=O)N(C)C[C@H]2Oc3ccc(NC(=O)Cn4cnnn4)cc3C(=O)N([C@@H](C)CO)C[C@H]2C)cc1 | 16
C[C@@H]1CN([C@H](C)CO)C(=O)Cc2cc(NC(=O)Nc3ccccc3)ccc2O[C@H]1CN(C)C(=O)Nc1ccc(F)cc1 | -3

Individual results from above.
NOMO-1 viab, `COc1ccc(OC)c(NC(=O)COc2ccc3c(=O)c(Oc4ccccc4Br)coc3c2)c1` reads 37
NOMO-1 viab, `C[C@H]1CN([C@@H](C)CO)C(=O)c2cccc(NS(C)(=O)=O)c2O[C@@H]1CN(C)C` reads -2
NOMO-1 viab, `C[C@H]1CN([C@@H](C)CO)C(=O)Cc2cc(NC(=O)CCN3CCOCC3)ccc2O[C@H]1CN(C)Cc1ccc(-c2ccccc2)cc1` reads 16

Remaining list, next part.
SMILES | NOMO-1 viab
COc1ccc(NC(=O)Nc2cccc3c2O[C@@H](CN(C)C(=O)Nc2c(C)noc2C)[C@@H](C)CN([C@@H](C)CO)C3=O)cc1 | 9
O=C(CN1C(=O)CNC1=O)Nc1cccc(C(F)(F)F)c1 | 5
C=CCn1nc2n(c1=O)-c1ccccc1SC2 | 23
C[C@@H]1CN([C@H](C)CO)C(=O)c2cc(NC(=O)CCC(F)(F)F)ccc2O[C@H]1CN(C)S(=O)(=O)c1ccc(F)cc1 | -4
Cc1ccc(NC(=O)c2ccc(OCC(=O)Nc3ccc(Oc4ccccc4)cc3)cc2)c(C)c1 | 13
CCOc1ccccc1NC(=O)C(C)N1c2cccc3cccc(c23)S1(=O)=O (centres undefined) | 40
N#Cc1cc2c(nc1SCC(=O)Nc1cccc(F)c1)CCCCC2 | ?
CCN(CC)S(=O)(=O)c1ccc(C(=O)Nc2ccc3c(c2)OC(C)(C)O3)cc1 | ?
C[C@H](CO)N1C[C@H](C)[C@@H](CN(C)S(C)(=O)=O)Oc2c(NC(=O)Nc3ccc(C(F)(F)F)cc3)cccc2C1=O | 19
COc1ccc(NC(=O)N(C)C[C@H]2Oc3c(NC(=O)CCCCCC(=O)Nc4ccccc4N)cccc3C(=O)N([C@H](C)CO)C[C@@H]2C)cc1 | 11
C[C@@H]1CN([C@@H](C)CO)C(=O)c2cc(NS(=O)(=O)c3ccccc3)ccc2O[C@H]1CN(C)Cc1ccc(-c2ccccc2)cc1 | 49
C[C@@H]1CN([C@H](C)CO)C(=O)c2cc(NC(=O)Cc3cn(C)c4ccccc34)ccc2O[C@@H]1CN(C)CC1CCCCC1 | 21
O=C(CSc1n[nH]c(-c2ccccc2Cl)n1)NC1CCCCC1 | -5
Cc1cc(C)c(C)c(S(=O)(=O)N2CCN(c3ncnc4sc5c(c34)CCCC5)CC2)c1C | 15
COc1cc(CCc2ccc3c(c2)OCO3)oc(=O)c1 | 33
C[C@H](CO)N1C[C@H](C)[C@H](CN(C)C(=O)Nc2ccc(F)cc2)Oc2ccc(NS(=O)(=O)c3ccccc3)cc2CC1=O | -6
COc1ccccc1N1C(=O)CC(SCC(=O)Nc2ccc(F)cc2)C1=O (centres undefined) | 0
CCOc1ccccc1NC(=O)CSc1nnc(-c2ccco2)n1C | 2
C[C@@H]1CN([C@@H](C)CO)C(=O)c2cc(NS(=O)(=O)c3ccc(Cl)cc3)ccc2O[C@H]1CN(C)C(=O)Nc1ccc(C(F)(F)F)cc1 | 7
CSc1ccccc1NC(=O)CN(c1cc(C)cc(C)c1)S(C)(=O)=O | -9
COC(=O)c1ccc(CSc2nc(-c3cccs3)cc(C(F)(F)F)n2)cc1 | 14
COc1ccc(CN(C)C[C@@H]2Oc3c(NS(=O)(=O)c4ccc(C)cc4)cccc3C(=O)N([C@@H](C)CO)C[C@@H]2C)cc1 | -1
C[C@H]1CN([C@@H](C)CO)C(=O)c2cccc(NC(=O)NC3CCCCC3)c2O[C@H]1CN(C)S(=O)(=O)c1cn(C)cn1 | 4
C[C@H]1CN([C@@H](C)CO)C(=O)Cc2cc(NS(=O)(=O)c3ccccc3)ccc2O[C@@H]1CN(C)Cc1ccc(Oc2ccccc2)cc1 | 36
CC(C)NC(=O)Nc1ccc2c(c1)C(=O)N([C@H](C)CO)C[C@@H](C)[C@H](CN(C)Cc1ccc(-c3ccccc3)cc1)O2 | 84*

High-throughput results deposited in PubChem BioAssay by Broad Institute.

The list is partial; count on the stated rates, not on these rows.
